Bioassay records deposited in PubChem BioAssay by Center for Chemical Genomics, University of Michigan.
TAR Tat displ – TAR RNA-Tat peptide displacers, HIV-1, primary screen, biochemical, FRET, FAM/TAMRA-labeled Tat. HIV-1 TAR RNA, Tat peptide displacement FRET; active compounds read high. z-score (no concentration beside the values). 0.6% of 100,000 active. AID 1259389, 2018;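 also: score is relative to mean and SD of negative controls; some compounds called inactive have numbers as strong as hits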
CDC25B CDK2 inh – primary biochemical HTRF screen for blockers of M-phase inducer phosphatase 2 binding to CDK2/cyclin A; 0.72% of 94,000 active; z-score (test concentration not listed); P30305+P24941; HTRF CDC25B-CDK2/CyclinA binding, anti-His/anti-Flag; active compounds read high;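 also: score is relative to mean and SD of negative controls; strong numbers were not always called active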
An asterisk follows results filed as active; nt = not tested or not shown.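 The calls were made as follows: active = z-score from 3 up in half or more of its runs; inactive = the rest.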

item	SMILES	TAR Tat displ	CDC25B CDK2 inh
1	COC(=O)CSc1nnc(CSc2ncccn2)n1-c1ccccc1	0.97	0.43
2	c1coc(Cn2c(-c3ccco3)nc3ccccc32)c1	-0.26	4.14
3	CCCc1nc(SCc2cc(=O)n3cc(C)sc3n2)n[nH]1	0.84	nt
4	CN1CCN(C(=O)CN2C(=O)c3cccnc3Oc3ccccc32)CC1	0.8	nt
5	O=c1/c(=C/c2c(Cl)cc(Cl)c(O)c2Cl)sc2nc3ccccc3n12	nt	-3.4
6	CCC1=Nc2cc(C(=O)NC(C)CC)ccc2Sc2ccccc21 (stereo unspecified)	-0.04	2.37
7	Cc1ccc(C)c(S(=O)(=O)Nc2cc(C(C(=O)OC(C)C)C(=O)C(F)(F)F)c(O)c3ccccc23)c1 (stereo unspecified)	nt	0.78
8	O=C(c1ccc(-n2ccc3ccccc32)s1)N1CCCCC1	-1.15	nt
9	COc1cc(OC)c(NC(=O)CSc2nncn3c2cc2sccc23)cc1Cl	2.43	nt
10	Cc1nc2ccc(-c3nc4ccc(N)cc4[nH]3)cc2[nH]1	nt	4.99*
11	O=C1CC2(Oc3ccccc3O2)C(=O)NN1	nt	-1.52
12	CCOC(=O)O/N=C(N)\C(N)=N/OC(=O)OCC	nt	-2.12
13	COc1ccc(Cc2nc(-c3cccnc3)no2)cc1	0.5	-0.33
14	Cc1ccc2c(c1)CCCN2CC(=O)c1ccc2c(c1)OCCO2	nt	-2.78
15	CCC(=O)OC1CCC2(C)C(CCC3C4CC=C(C(C)=O)C4(C)CC(=O)C32)C1 (stereo unspecified)	nt	-1.63
16	COC(=O)Cn1nc(C)c2ccccc2c1=O	-0.92	-0.53
17	Cc1cc(S(=O)(=O)[C@H]2CS(=O)(=O)C[C@@H]2NCC(C)C)ccc1F	0.55	0.54
18	CCCc1cnc(N2CCN(S(=O)(=O)c3ccc4c(c3)CCO4)CC2)nc1	nt	-2.32
19	CCCCCc1nc2c(=O)n(C)c3ccccc3c2o1	nt	2.02
20	COC(=O)c1cc2sccc2n1CC(=O)Nc1cc(Cl)c(OC)cc1OC	1.37	-0.56

Ordered by count of non-hydrogen atoms (descending): part of the list above.
item	SMILES	TAR Tat displ	CDC25B CDK2 inh
15	CCC(=O)OC1CCC2(C)C(CCC3C4CC=C(C(C)=O)C4(C)CC(=O)C32)C1 (stereo unspecified)	nt	-1.63
5	O=c1/c(=C/c2c(Cl)cc(Cl)c(O)c2Cl)sc2nc3ccccc3n12	nt	-3.4
19	CCCCCc1nc2c(=O)n(C)c3ccccc3c2o1	nt	2.02

Remaining list, next part
item	SMILES	TAR Tat displ	CDC25B CDK2 inh
21	CCCNC(=O)Cn1cc2c(n1)-c1c(oc(C(=O)N3CCCC3)c1C)CC2	0.85	nt
22	O=c1c2cn(Cc3ccccc3)c3ccccc3c-2nn1Cc1ccc(Cl)cc1	-1.06	nt
23	Cc1cc(C)c2c(c1)-c1cc(C)nn1C(c1cccc(O)c1)N2 (stereo unspecified)	0.53	0.03
24	Cc1nnc(NC(=O)CSc2nc(-c3cccs3)nc3c2c(=O)n(C)c(=O)n3C)s1	nt	-1.11
25	Cc1ccc(Cn2nc(C)c(NC(=O)c3noc(C)c3[N+](=O)[O-])c2C)cc1	0.13	-0.8
26	COc1cc(OC)c(-n2nnc(S(=O)(=O)c3ccccc3)c2C)cc1Cl	1.61	-0.41
27	CCCc1n(CC(O)COc2cccc(C)c2)c2ccccc2[n+]1C (stereo unspecified)	1.54	-1.69
28	CC(NC(=O)C1CCCCC1)c1nc(-c2ccc(C(C)(C)C)cc2)no1 (stereo unspecified)	0.91	-1.57
29	Cc1ccc(C2Nc3ccc(C(=O)c4ccccc4)cc3NC3=C2C(=O)CCC3)o1 (stereo unspecified)	-0.43	-0.46
30	CN1CCc2c(sc(-n3cccc3)c2CNC(=O)Nc2ccc(Br)cc2F)C1	-0.44	nt
31	COc1cc(/C=C/C(=O)/C=C/c2cc(OC)c(OC)c(OC)c2)cc(OC)c1OC	nt	-1.41
32	CCOC(=O)c1nc(Nc2ccc3c(c2)OCO3)c2c(C)noc2n1	0.4	nt
33	CCCN(CCC)S(=O)(=O)c1ccc2c(c1)NC(=O)CO2	1.04	nt
34	CCOCCCNC(=O)c1c(C)c(C(=O)OCC)n(C)c1C	nt	-1.02
35	CC(C)c1nn2c(=O)cc(CSc3nc(-c4ccco4)nc4cc(=O)[nH]n34)nc2s1	0.61	nt
36	O=C(Nc1ccc(F)c(Cl)c1)N1CCCC1c1ccco1 (stereo unspecified)	0.58	-2.01
37	CCCN(CCC)C(=O)CSc1nc2ncccc2o1	0.94	nt
38	O=C(NCCN1CCCC1)c1cccn1-c1nnc(N2CCCC2)s1	-0.76	nt
39	CCC(C)NC(=O)CCc1nnc2ccc(N3CCC(C)CC3)nn12 (stereo unspecified)	-1.59	nt
40	CCc1ccc(CN(C(=O)Cc2coc3ccc(C)cc23)C2CCS(=O)(=O)C2)cc1 (stereo unspecified)	2.76	1.07
41	COc1ccc(C2CC(=O)n3nc(C45CC6CC(CC(C6)C4)C5)nc3S2)cc1OC (stereo unspecified)	nt	-1.21
42	O=C(Cn1cnc(S(=O)(=O)N2CCCCC2)c1)N(Cc1ccco1)C1CCCC1	-0.38	nt
43	CN(C1CCCCC1)S(=O)(=O)c1ccc(-c2cc(C(F)(F)F)on2)s1	0.71	nt
44	CCC1(C)CC(=O)c2c(ccc3oc(C(=O)NC4CCCC4)c(C)c23)O1 (stereo unspecified)	1.86	-3.29
45	CCn1nc(C)c(CCNC(=O)NC(C)C(=O)OC)c1C (stereo unspecified)	-2.07	nt
46	CCCN1CCN(c2ncnc3sc(C(=O)NC4CC4)c(C)c23)CC1	2.17	nt
47	Cn1c(C2=C(O)CN(c3ccc(Cl)cc3)C2=N)nc2ccccc21	1.58	0.6
48	NC(=O)C1CCN(S(=O)(=O)c2cc3c4c(c2)CC(=O)N4CCC3)CC1	1.71	nt
49	CCSc1nnc(Cn2c(=O)sc3ccccc32)n1-c1ccccc1	nt	-0.92
50	Cc1ccc(S(=O)(=O)c2nnn3c2nc(NCCCOC(C)C)c2ccccc23)cc1C	-1.62	-2.56
51	O=C(CCCn1c(=O)c2cccn2c2cccnc21)NCc1ccc2c(c1)OCO2	0.31	nt
52	COc1ccc(C2C=C(C(=O)O)Nc3ncnn32)cc1Cl (stereo unspecified)	1.39	1.1
53	O=S(=O)(Nc1cccc(-c2ccc(N3CCOCC3)nn2)c1)c1ccc(Br)cc1	0.48	nt
54	CCCCOc1nnc(-c2ccc(OC)cc2)c2ccccc12	nt	-1.07
55	Cc1nn(CO)c(C)c1Sc1ccc(Br)cc1	0.06	0.05
56	O=c1[nH]c2ccccc2n1CCCOc1ccccc1	2.07	-1.15
57	Fc1ccc(-c2nc3ncccn3c2NCc2ccc(Cl)cc2)cc1	-0.24	nt
58	N#Cc1nc(-c2ccc(S(=O)(=O)N3CCc4ccccc4C3)cc2)oc1NCCN1CCOCC1	1.06	1.11
59	CCN(CC)CCNC(=O)Cn1ncc2c([nH]c3ccccc32)c1=O	1.49	nt
60	COc1ccc(N2C(=O)c3c(C)nc4ccccc4c3C2=O)cc1OC	0.06	-0.19
61	O=C(CC1CC(=O)Oc2ccccc21)Nc1nccs1 (stereo unspecified)	-0.97	1.19
62	Cn1c(=O)oc2cc(S(=O)(=O)N3CCCC(C(=O)Nc4ccc(F)c(F)c4)C3)ccc21 (stereo unspecified)	1.12	-0.85
63	O=C(OCc1cc(=O)n2ccsc2n1)c1ccc(Cl)cc1	0.19	nt
64	CC1(C)SC2C(NC(=O)C(NC(=O)N3CCNC3=O)c3ccccc3)C(=O)N2C1C(=O)O (stereo unspecified)	nt	-1.2
65	Clc1cc(N2CCCC2)nc(N2CCCC2)n1	nt	-1.95
66	CNC(=O)N1CCC2(CC1)Nc1cc(F)ccc1-n1cccc12	-0.31	nt
67	CCCN(CCC)S(=O)(=O)c1cc2[nH]c3c(c2cc1C)C(=O)CC(C)(C)C3	1.04	nt
68	Cc1ccc(NS(=O)(=O)c2ccc(-c3n[nH]c(C)c3C)s2)c(Cl)c1	1.48	nt
69	C=CCn1c(COc2ccc(Cl)c3cccnc23)nnc1SCC(N)=O	-0.46	-1.96
70	CC1=NN(c2nc(-c3ccc(Br)cc3)cs2)C(=O)/C1=C\c1ccc2c(c1)OCO2	nt	20.9*
71	O=C(NCc1ccccc1)N1CCc2c([nH]c3ccccc23)C1c1cccnc1 (stereo unspecified)	1.1	-0.39
72	COc1cc(OC)c(NS(=O)(=O)c2cn(C)cn2)cc1Cl	2.05	nt
73	Cc1ccc2c(c1)NC(c1cccnc1)=NC(c1ccc(F)cc1)=N2	0.07	-2.5
74	COC(=O)c1sc2ccccc2c1S(=O)(=O)Nc1ccc(F)c(F)c1	0.45	nt
75	CCCNC(=O)CCc1nnc2ccc(N(CC)CC)nn12	-0.42	nt
76	CN(CC(=O)NCc1cccs1)S(=O)(=O)c1ccc(C(=O)N2CCOCC2)s1	1.39	nt
77	NCc1nnc(SCc2cccc(Br)c2)o1	0.48	-0.7
78	COc1cccc(Nc2nc(C)c3ncn(-c4cccc(OC)c4)c3n2)c1	-0.38	-2.86
79	CC(c1ccccc1)N1CCn2c(nc3ccccc32)C1 (stereo unspecified)	1.37	-1.26
80	COC(=O)c1cc2sc(C)cc2n1Cc1nc(-c2ccc(OC)c(OC)c2)oc1C	-0.99	-0.91

Next part.
item	SMILES	TAR Tat displ	CDC25B CDK2 inh
81	Cc1c(C)c2c(c(C)c1OC(=O)CCC(=O)O)CC[C@@](C)(CCC[C@H](C)CCC[C@H](C)CCCC(C)C)O2	-0.15	nt
82	O=C(Cn1cc(Cl)c(=O)c(Cl)c1)N/N=C/c1ccc(Cl)c(Cl)c1	nt	-1.47
83	Cn1c(C(=O)N2CCN(C3CCCCC3)CC2)cc2c(=O)n(C)c3ccccc3c21	1.6	-0.38
84	Cn1cc(S(=O)(=O)N2CCOCC2)cc1C(=O)N1CCN(C2CCCCC2)CC1	2.27	nt
85	CC(C)CCSc1nnc(Cn2c(=O)sc3ccccc32)n1C	nt	-0.56
86	O=[N+]([O-])c1ccc(N/N=C/c2ccc(-c3cccs3)s2)nc1	nt	-3.87
87	Cc1cc(C)n2nc(CNS(=O)(=O)c3ccc4c(c3)CCCC4)nc2n1	1.22	-0.11
88	COc1ccc(N2C(=O)C3CCCN3C2c2ccc(OC)c(OC)c2)cc1 (stereo unspecified)	-0.29	-0.41
89	C=CCSc1nnc2c(n1)OC(c1ccccc1F)N(C(C)=O)c1ccccc1-2 (stereo unspecified)	0.31	-1.71
90	c1ccc(-c2cn3ccsc3n2)cc1	nt	-2.12
91	CCN(CC)C(=O)c1nn(C)c2c1COc1ccccc1-2	1.81	-0.97
92	CCCCNC(=O)NNc1cc(N(C)C)c(C#N)c(N(C)C)n1	nt	-3.66
93	O=C(c1cccs1)C(O)NS(=O)(=O)c1ccccc1 (stereo unspecified)	nt	-1.21
94	CN(CCCc1nc2ccccc2[nH]1)S(=O)(=O)c1ccc(Cl)cc1	2.13	-0.59
95	CCOC(=O)c1c(S(=O)(=O)NC2CCN(C(=O)OCC)CC2)c(C)n(C)c1C	0.72	nt
96	CC1C=C(/N=C/c2ccc(C#Cc3ccccc3)cc2)N(c2ccccc2)N1 (stereo unspecified)	nt	1.61
97	Cc1ccc(S(=O)(=O)N2CCCC(c3nc(-c4ccccc4Cl)no3)C2)cc1C (stereo unspecified)	1.03	nt
98	O=c1cc(CSc2ccccc2NS(=O)(=O)c2cnc[nH]2)nc2ccc(Cl)cn12	0.52	nt
99	CCN(CC)C(=O)C(=O)NC(C)C(c1cccs1)N1CCN(C)CC1 (stereo unspecified)	1.52	-2.56
100	CCN(C(=O)Cn1c(CN(C)C(C)=O)nc2ccccc21)c1ccccc1	1.51	0.58

Single values from the list.
CDC25B CDK2 inh with `CCN(CC)C(=O)C(=O)NC(C)C(c1cccs1)N1CCN(C)CC1` (stereo unspecified) reads -2.56
CDC25B CDK2 inh with `CCN(CC)C(=O)c1nn(C)c2c1COc1ccccc1-2` reads -0.97
CDC25B CDK2 inh with `CC(C)CCSc1nnc(Cn2c(=O)sc3ccccc32)n1C` reads -0.56
TAR Tat displ with `Cc1ccc(S(=O)(=O)N2CCCC(c3nc(-c4ccccc4Cl)no3)C2)cc1C` (stereo unspecified) reads 1.03
TAR Tat displ with `Cn1c(C(=O)N2CCN(C3CCCCC3)CC2)cc2c(=O)n(C)c3ccccc3c21` reads 1.6
TAR Tat displ with `CN(CCCc1nc2ccccc2[nH]1)S(=O)(=O)c1ccc(Cl)cc1` reads 2.13
TAR Tat displ with `CCN(C(=O)Cn1c(CN(C)C(C)=O)nc2ccccc21)c1ccccc1` reads 1.51

(list continues)
item	SMILES	TAR Tat displ	CDC25B CDK2 inh
101	CC1(C)Cc2cccc(C(=O)Nc3cccc4c3CCCC4)c2O1	nt	-2.88
102	CC(C)(C)c1ccc(C2=NNC(SCC(=O)c3ccccc3)=NN2)cc1	nt	-0.81
103	O=C(Nc1ccc2c(c1)OCCO2)c1cncc(-c2cccs2)c1	nt	-0.5
104	Cc1c(N2CCC(C(=O)O)CC2)c(=O)n(C)c(=O)n1-c1ccccc1	1.19	-1.04
105	COc1cccc(-c2nc(-c3ccc(-c4ccc(C)cc4)nc3OC)no2)c1	-11	1.8
106	O=C1c2cccnc2C(=O)N1Cc1ccc(S(=O)(=O)NCCC2=CCCCC2)s1	1.19	nt
107	COc1ccc(S(=O)(=O)Nc2ccccn2)cc1OC	1.62	-1.33
108	O=C1CCC2C(=O)N(Cc3ccccc3)C(=O)C2C1 (stereo unspecified)	-1.05	-1.55
109	CN1C(C(=O)Nc2ccc3c(c2)OCO3)=CC(c2ccc(F)cc2)=NS1(=O)=O	-0.55	-1.07
110	c1ccc2sc(-c3csc(-c4ccc5c(c4)OCCO5)n3)nc2c1	nt	-1.62
111	O=C(c1c(F)cccc1F)N1CCN(c2ccc3nncn3n2)CC1	-0.8	-2.04
112	CC1=C(C(=O)Nc2cc(C)ccn2)C(c2ccc(F)cc2)C2=C(CC(C)(C)CC2=O)N1 (stereo unspecified)	1.58	-0.31
113	O=S(=O)(c1ccc2[nH]c3c(c2c1)CCCC3)N1CCN(C2CCCCC2)CC1	0.18	nt
